# quorum sensing – Vibrio cholerae quorum sensing activators, luminescence (AID 686977) | V. cholerae quorum sensing reporter, luminescence, 6 h; higher luminescence means a stronger effect; most inactives read 0 | luminescence at 50 µM unless noted, or EC50 in µM where a hit was titrated | 9,400 tested, under 10 active;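 active means light above mean plus 3 SD and confirmed in a dose series; inconclusive means above that limit without a clear retest; inactive means below it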;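 further: raw light counts without normalisation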
# * hit, by the source's call; ? = inconclusive; [ ] = remark or other dose.
SMILES,quorum sensing
CN(C)S(=O)(=O)N(CC(=O)N(Cc1ccccc1)Cc1ccccc1)c1ccccc1,40
Cc1cc(C)n(-c2ccc(C(=O)NCc3ccc4c(c3)OCO4)cc2)n1,0
CCn1cc(C(C)(C)C)c(C#N)c1NC(C)=O,0
CCN(Cc1ccccc1)C(=O)CC1Oc2ccccc2NC1=O (stereo not drawn),0
Cc1nn(CCC(=O)O)c(C)c1C,0
CC(C)=CCC/C(C)=C/CC1=C(C)C(=O)c2ccccc2C1=O,?
CCNc1nc(Cl)nc(N(NC(C)=O)C(C)CC)n1 (stereo not drawn),0
OC(CC1CC12c1ccccc1-c1ncccc12)(c1ccccc1)c1ccccc1 (stereo not drawn),40
c1ccc(Cn2ccc(-c3cnc(-c4ccccc4)s3)n2)cc1,0
O=C1CN(C(=O)c2ccc(Br)o2)C(c2ccccc2)c2cc(F)ccc2N1 (stereo not drawn),40
NC(=O)CSc1nnc(-c2ccc(S(=O)(=O)N3CCOCC3)cc2)n1CC1CCCO1 (stereo not drawn),0
O=C(c1cc(C2CC2)on1)N1CCOCC1,0
COc1cccc2c(=O)n(CC(=O)NC3CCCCC3)ccc12,40
Cc1cc(N2CCC(N(C)C3CCCC3)CC2)nc2cc(O)ccc12,0
CCCn1c(=O)c2ccccc2n2c(SCCOc3ccc(OC)cc3)nnc12,0
Cc1ccc(C)c(NC(=O)C2CCC(C)(C(=O)O)C2(C)C)c1 (stereo not drawn),0
CC1(C)NC(=O)N(c2ccc([N+](=O)[O-])c(C(F)(F)F)c2)C1=O,40[10 µg/mL]
CC(=O)NC(CCS(C)(=O)=O)C(=O)Nc1cc(C)ccc1C (stereo not drawn),40
CNCCC=C1c2ccccc2CCc2ccccc21,0[10 µg/mL]
Cc1cc(C)cc(OCC(=O)OCC(=O)c2c(N)n(C)c(=O)n(C)c2=O)c1,40
O=c1cc(O)c(-c2cccc(Cl)c2)c(Cl)[nH]1,0
CC(C)Cn1c(CCCNC(=O)c2ccc(F)cc2)nc2ccccc21,?
CCc1ccc(N2C(=O)c3sc4nnc(-c5ccccc5)c(=O)n4c3C2=O)cc1,40
CCc1nnc(NC(=O)C2CC(=O)N(CCc3ccccc3)C2)s1 (stereo not drawn),0
C(=N\C(/N=C/c1ccco1)c1ccco1)/c1ccco1,0
Cc1cc(=O)oc2cc(OCC(=O)N3CC(C)OC(C)C3)ccc12 (stereo not drawn),0
CCCCC(=O)NC(=S)NNC(=O)CC#N,0
CN(C)CCNc1ncnc2c1cnn2-c1ccc(Cl)cc1,0
O=C1CC(c2ccc3c(c2)OCO3)C2=C(CCCC2=O)N1 (stereo not drawn),?
c1ccc(OCCCc2nc(-c3cccnc3)no2)cc1,0
Cc1ccc(S(=O)(=O)n2nc(OC(=O)C(C)(C)C)cc2N)cc1,0
O=C(O)c1cc2ccccc2oc1=O,0
O=C(Cn1cc2c(n1)CCCC2)NC1CCN(Cc2ccccc2)CC1,0
CCSc1nc(O)c(Cc2ccccc2)c(=O)[nH]1,0
CSc1ccc2c(c1)N(CCC1CCCCN1C)c1ccccc1S2 (stereo not drawn),0[10 µg/mL]
CC(C)C(C)NC(=O)CSc1nc2scc(-c3ccco3)c2c(=O)n1-c1ccccc1 (stereo not drawn),40
C/C(N)=C(/C#N)C(=O)CSc1nc2ccc(C)cc2[nH]1,0
O=C(OCn1nnc2ccccc2c1=O)c1cccnc1Cl,40
COc1cccc(C2c3c(oc4cc(C)c(C)cc4c3=O)C(=O)N2CCCN(C)C)c1 (stereo not drawn),0
COc1cccc(NC(=O)c2ccccc2-c2nc(-c3ccc(Cl)cc3)no2)c1,160
COCCCn1c(N)c(C(=O)OCCOC)c2nc3ccccc3nc21,0
O=C(Nc1nc2c(s1)COc1ccccc1-2)c1cccs1,280
COC(=O)[C@H]1[C@H]2C[C@H]3c4[nH]c5ccccc5c4CCN3C[C@H]2CC[C@@H]1O,0[10 µg/mL]
O=C(CSC(=S)N1CCOCC1)N1N=CCC1c1ccccc1 (stereo not drawn),0
O=C1CC(C(=O)Nc2ccccc2C(=O)O)C(c2ccccc2)O1 (stereo not drawn),200
CSCCC(NC(N)=O)C(=O)N(C)CC(=O)Nc1ccc(C)cc1 (stereo not drawn),40
O=C(NCCCCO)C(F)(F)C(F)(F)C(F)(F)C(=O)NCCCCO,40
COc1ccccc1S(=O)(=O)Nc1cccc(-c2nnc3n2CCCCC3)c1,40
COc1ccc(-c2cnn(C3CCS(=O)(=O)C3)c2N)cc1 (stereo not drawn),40
Nc1nc(N2CCOCC2)nc(N(c2ccccc2)c2ccccc2)n1,0
CC1(C)CC(=O)C(C(=O)CCCCC(=O)C2C(=O)CC(C)(C)CC2=O)C(=O)C1,0
N#Cc1ncc(C(F)(F)F)cc1Sc1ccc(N)cc1,0
COc1ccc(NC(=O)CSc2nncs2)cc1OC,0
Cc1cccc(CN2CCC(C(N)=O)CC2)c1,0
C[C@H]1CC[C@]2(NC1)O[C@H]1C[C@H]3[C@@H]4CC[C@H]5C[C@@H](O)CC[C@]5(C)[C@H]4CC[C@]3(C)[C@H]1[C@@H]2C,0[10 µg/mL]
Cc1noc(C)c1C(=O)Nc1ccc(F)c(F)c1,0
Cc1ccc(CN2CCN(/N=C/c3cc([N+](=O)[O-])ccc3Cl)CC2)cc1,0
COc1ccc(CSc2nnnn2C)cc1F,40
CCN1CCCC1CNC(=O)Cn1cc2c(n1)CCC(C)C2 (stereo not drawn),0
CCCC(=O)Nc1ncnc2c1ncn2[C@@H]1O[C@@H]2OP(=O)(O)OC[C@H]2[C@H]1OC(=O)CCC,0[10 µg/mL]
# Next part.
SMILES,quorum sensing
Cc1cc(O)c(C(C)C)cc1NC(=O)c1cccc(Cl)c1,0
CC(=O)N1CSCC1C(=O)N1CCN(c2ccc(N3CCOCC3)nn2)CC1 (stereo not drawn),40
CCCc1nc(N2CCN(C)CC2)c2sc(=S)n(-c3ccccc3)c2n1,0
CCOc1ccc(-n2c(Cc3cc(=O)[nH]c(=O)[nH]3)nnc2SCc2cccnc2)cc1,0
COC(=O)c1cc(NCc2c(F)cccc2Cl)ccc1N1CCOCC1,0
CN1C(C(=O)Nc2ccccn2)=C(O)c2ccccc2S1(=O)=O,0[10 µg/mL]
Cc1ccccc1CSCC(=O)NC1CCCC1,0
CCOC(=O)c1ccc(NC(=O)CN(c2ccc(C)cc2)S(=O)(=O)c2c(C)nn(C)c2C)cc1,0
COC(=O)c1nc2n(n1)C(c1cccc(Cl)c1)C1=C(CCCC1=O)N2 (stereo not drawn),40
CCc1nc(Sc2nc(C)cc(C)n2)c2oc3ccccc3c2n1,0
Cc1cccc(OCCn2c(CCCO)nc3ccccc32)c1,320
CCc1cc(Cl)c(OC)c(C(=O)NC[C@@H]2CCCN2CC)c1O,40[10 µg/mL]
Cc1cc2c(cc(C(=O)OC(C(=O)NCc3ccco3)C(C)C)n2C)o1 (stereo not drawn),0
CCn1c(SCC(=O)Nc2cc(C)ccc2C)nc2c(c1=O)SC(C)C2 (stereo not drawn),40
COc1ccc(S(=O)(=O)N(C)CC(=O)Nc2ccccc2C(F)(F)F)cc1Cl,?
CC(=O)c1c(C)[nH]c(C(=O)N2c3ccccc3CC2C)c1C (stereo not drawn),0
COc1ccc2c(c1)c(C(=O)OCCN(C)C)c(C)n2C,280
Cc1ccc(S(=O)(=O)Nc2ccc3nc(C)sc3c2)cc1,0
Cc1nn(C)c(C)c1S(=O)(=O)N1CCCC(C(=O)NCC2COc3ccccc3O2)C1 (stereo not drawn),0
c1ccc(C2=Nc3ccccc3OC2)cc1,0
C=CCNC(=S)N/N=C/c1ccc(OCc2ccccc2Cl)cc1,40
Cc1nnc(SCC(=O)N/N=C/c2cn(-c3ccccc3)nc2-c2ccccc2)n1-c1ccccc1,0
Cc1c(C)n(C)c2ccc(C(=O)NCc3cccs3)cc12,0
COCCN1Cc2cccc(C(=O)Nc3ccc4c(c3)OCCO4)c2C1=O,0
CCOC(=O)c1cn(-c2ccc(F)c(F)c2)c2c(F)c(F)c(F)c(F)c2c1=O,0
CCc1ccc(OCC(=O)NC(=S)Nc2cccc(CO)c2)c(Br)c1,40
COc1ccccc1NC(=O)CC1C(=O)NCCN1C(=O)Nc1ccc(Cl)c(Cl)c1 (stereo not drawn),0
CCc1ccc(NS(=O)(=O)c2cc(OC)ccc2OC)cc1,0
S=c1[nH]ncn1/N=C/c1ccccn1,280
CCOC(=O)c1[nH]c2c(c1C)C(=O)CC(c1ccc(F)cc1)C2 (stereo not drawn),40
CCC(=O)[C@@]1(C)[C@H](C)C[C@H]2[C@@H]3CCC4=CC(=O)C=C[C@]4(C)[C@H]3[C@@H](O)C[C@@]21C,320[10 µg/mL]
O=c1cc(-c2ccncc2)oc2ccccc12,40
Cn1c(=O)cc(OCC(=O)NCCCN2CCN(c3cccc(Cl)c3)CC2)c2ccccc21,0
O=C(OCc1nc2ccccc2s1)[C@@H]1CCCN1S(=O)(=O)c1ccccc1F,0
CC(=O)OCC1=C(C(=O)O)N2C(=O)[C@@H](NC(=O)Cc3cccs3)[C@H]2SC1,40[10 µg/mL]
O[C@@H]1[C@@H](O)C=C2CCN3Cc4cc5c(cc4[C@H]1C23)OCO5 (stereo partly drawn),40[10 µg/mL]
CCOC(=O)C1CCCN(c2c(NCCCN3CCCC(C)C3)c(=O)c2=O)C1 (stereo not drawn),0
NC[C@@H]1O[C@H](O[C@H]2[C@@H](O)[C@H](O[C@@H]3[C@@H](O)[C@H](N)C[C@H](N)[C@H]3O[C@H]3O[C@H](CN)[C@@H](O)[C@H](O)[C@H]3N)O[C@@H]2CO)[C@H](N)[C@@H](O)[C@@H]1O,40[10 µg/mL]
CCC(=O)NCCc1nc2cc(NC(=O)c3ccc(OC)cc3)ccc2n1C,240
CC1(C)CC(=O)N(CC(=O)NCc2ccccc2)c2ccccc2S1(=O)=O,0

# Grouped by structure: the compounds so far with a cyano group.
SMILES,quorum sensing
CCn1cc(C(C)(C)C)c(C#N)c1NC(C)=O,0
CCCCC(=O)NC(=S)NNC(=O)CC#N,0
C/C(N)=C(/C#N)C(=O)CSc1nc2ccc(C)cc2[nH]1,0
N#Cc1ncc(C(F)(F)F)cc1Sc1ccc(N)cc1,0

# Among those listed so far, two have bromine.
SMILES,quorum sensing
O=C1CN(C(=O)c2ccc(Br)o2)C(c2ccccc2)c2cc(F)ccc2N1 (stereo not drawn),40
CCc1ccc(OCC(=O)NC(=S)Nc2cccc(CO)c2)c(Br)c1,40

# More records follow:
SMILES,quorum sensing
O=C1c2ccccc2C(=O)N1CCSc1nncs1,0
CN1CCN(c2ccc(NC(=O)Oc3ccccc3)cc2)CC1,40
CCOC(=O)CSc1n[nH]c(-c2ccco2)n1,0
O=C(NCc1ccccc1Cl)C1CCCN(S(=O)(=O)c2cnc[nH]2)C1 (stereo not drawn),0
COCCn1c(=O)[nH]c2cc(C(=O)NCC3CCCO3)ccc2c1=O (stereo not drawn),40
C/C(=C\C(=O)c1ccc(Br)cc1)NCc1ccc(C)cc1,?
Cc1nn(C(=O)c2cccnc2)c(C)c1C,120
COc1ccc(-n2c(Cc3cc(=O)[nH]c(=O)[nH]3)nnc2SCc2ccccc2)cc1,?
OCCN1CCN(c2ncnc3ccc(Br)cc23)CC1,200
COc1ccc(C(c2nnnn2CCc2ccccc2)N2CCN(C3CCCC3)CC2)cc1 (stereo not drawn),200
CCC(C)(C(=O)NC1CCCC1)N(C(=O)c1ccccn1)c1ccc(C)cc1 (stereo not drawn),0
COc1ccc(-n2c(SCC(=O)Nc3ccc(C(=O)O)cc3)nnc2-c2cccs2)cc1,0
CC1=CC(C)(C)N(C(=O)CSc2nnc(-c3ccc(C)cc3)o2)c2ccc(C)cc21,40
Cc1ccc2cc(CCNC(=O)C(C)(C)C)c(=O)[nH]c2c1,40
Cc1ccc(C(=O)Nc2ccc3nc(C)sc3c2)s1,0
CC(=O)C1=C(C)Nc2cc(C(F)(F)F)ccc2S1,40
O=C(CCCN1C(=O)CSc2ncccc21)N1CCN(Cc2ccccc2)CC1,0
CN1CCN(c2nc(-c3ccco3)cc(C(F)(F)F)n2)CC1,0
Cc1cccc(N2CCN(C(=O)c3ccc4ncsc4c3)CC2)c1C,?
CC1CCN(c2nc3ccc(C(=O)N4CCN(Cc5ccc6c(c5)OCO6)CC4)cc3s2)CC1,0
O=C(CCn1c(=O)c2ccccc2n(CC(=O)NCCC2=CCCCC2)c1=O)NCc1ccco1,0
CCc1nc(NCCCn2ccnc2)c2oc3ccccc3c2n1,0
CCOC(=O)N1CCC(NC(=O)c2ccc3snnc3c2)CC1,0
CCN(Cc1ccccc1)S(=O)(=O)c1ccc(S(=O)(=O)N2CCN(CCC#N)CC2)cc1,0
N#CC1=C(N)Oc2n[nH]c(-c3cccs3)c2C1C1CCCCC1 (stereo not drawn),40
Cc1cc(C)n2nc(SCc3nc4ccccc4[nH]3)nc2n1,0
CSc1cc(-c2ccccc2)n(Cc2ccc(Cl)cc2Cl)c(=O)c1C#N,0
CCOc1ccc(NC(=O)CSc2nnc(-c3ccccc3)n2N)cc1,0
O=c1cc(N2CCOCC2)[nH]c(=O)n1-c1ccc(Cl)cc1,0
Cc1ccc(-c2nc3ccccc3n2C)o1,0

# Entries above with a furan ring, fused or not (10):
SMILES,quorum sensing
O=C1CN(C(=O)c2ccc(Br)o2)C(c2ccccc2)c2cc(F)ccc2N1 (stereo not drawn),40
C(=N\C(/N=C/c1ccco1)c1ccco1)/c1ccco1,0
CC(C)C(C)NC(=O)CSc1nc2scc(-c3ccco3)c2c(=O)n1-c1ccccc1 (stereo not drawn),40
CCc1nc(Sc2nc(C)cc(C)n2)c2oc3ccccc3c2n1,0
Cc1cc2c(cc(C(=O)OC(C(=O)NCc3ccco3)C(C)C)n2C)o1 (stereo not drawn),0
CCOC(=O)CSc1n[nH]c(-c2ccco2)n1,0
CN1CCN(c2nc(-c3ccco3)cc(C(F)(F)F)n2)CC1,0
O=C(CCn1c(=O)c2ccccc2n(CC(=O)NCCC2=CCCCC2)c1=O)NCc1ccco1,0
CCc1nc(NCCCn2ccnc2)c2oc3ccccc3c2n1,0
Cc1ccc(-c2nc3ccccc3n2C)o1,0

# Compound activity (PubChem BioAssay)

# Some of the compounds tested. The share of hits here may be higher or lower than overall.
